TAR Tat displ: TAR RNA-Tat peptide displacers, HIV-1, primary screen, biochemical, FRET, FAM/TAMRA-labeled Tat; 100,000 compounds, 0.6% hits; z-score (test concentration not listed); HIV-1 TAR RNA, Tat peptide displacement FRET; active compounds read high;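 also: score is relative to mean and SD of negative controls; some compounds called inactive have numbers as strong as hits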
CDC25B CDK2 inh: primary biochemical HTRF screen for blockers of M-phase inducer phosphatase 2 binding to CDK2/cyclin A; P30305+P24941; HTRF CDC25B-CDK2/CyclinA binding, anti-His/anti-Flag; active compounds read high; z-score (no concentration beside the values); 94,000 compounds, 0.72% hits; AID 1259370, 2018;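 also: score is relative to mean and SD of negative controls; strong numbers were not always called active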
Numbers without * were called inactive.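 The calls were made as follows: active = z-score from 3 up in half or more of its runs; inactive = the rest.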 An unsorted share of the library; 0.9% or so of the library scored in one or more.

Screening Cc1ccc(S(=O)(=O)NNC(=S)NC(C)(C)C)cc1 returned CDC25B CDK2 inh -0.36.
CCOc1ccc(NC(=O)N2CCC(O)C2)cc1 (configuration not stated) was read as TAR Tat displ -0.03 and CDC25B CDK2 inh -0.58.
`O=C1N(c2ccc(F)cc2)C2CS(=O)(=O)CC2N1c1ccccc1Cl` (configuration not stated) gave TAR Tat displ -1.4 and CDC25B CDK2 inh -0.95.
`O=C1CN(C(=O)c2ccc(Br)o2)C(c2ccc(F)cc2)c2cc(Cl)ccc2N1` (configuration not stated) gave CDC25B CDK2 inh 0.46.
CCC(C)C(=O)O[C@H]1C[C@H](O)C=C2C=C[C@H](C)[C@H](CC[C@@H](O)C[C@@H](O)CC(=O)O)C21 (some centres not stated) was read as TAR Tat displ 0.66.
Screening O=C(Nc1cccc2cccnc12)c1csc2c1CCCC2 returned TAR Tat displ 1.2 and CDC25B CDK2 inh -1.6.
Cc1cccc(N2C(=O)C3ON(c4ccccc4)C(c4cccs4)C3C2=O)c1 (configuration not stated) was read as TAR Tat displ 1.3 and CDC25B CDK2 inh -0.67.
For CCCNC(=O)c1sc2ncnc(N3CCCC3)c2c1C the results were TAR Tat displ 0.26.
`O=[N+]([O-])c1ccc(-[n+]2nc(-c3ccccc3)nn2-c2ccccc2)cc1` gave CDC25B CDK2 inh 0.33.
`O=c1c2cn(Cc3ccccc3)c3ccccc3c-2nn1Cc1cccc(Cl)c1` gave TAR Tat displ -0.58.
For Nc1nc(N2CCCCC2)nc(NCCO)c1[N+](=O)[O-] the results were TAR Tat displ 0.71.
Screening CC1=C(c2cccc(Br)c2)S(=O)(=O)N=C1N1CCOCC1 returned TAR Tat displ 0.51 and CDC25B CDK2 inh -2.3.
`Cc1cc2n(n1)CCC(=O)N2CCCC(=O)NCCN(C)C1CCCCC1` gave TAR Tat displ 1.6.
Screening Nc1cc(N)nc(SCC(=O)Nc2nc3c(s2)CCCC3)n1 returned CDC25B CDK2 inh -1.5.
For Cc1cc2nc(CSc3n[nH]c(-c4ccc(Cl)cc4)n3)cc(=O)n2o1 the results were TAR Tat displ 1.4.

Two compounds drawn at random from those above, as already listed:
Cc1cccc(N2C(=O)C3ON(c4ccccc4)C(c4cccs4)C3C2=O)c1 (configuration not stated) was read as TAR Tat displ 1.3 and CDC25B CDK2 inh -0.67.
`O=C1N(c2ccc(F)cc2)C2CS(=O)(=O)CC2N1c1ccccc1Cl` (configuration not stated) gave TAR Tat displ -1.4 and CDC25B CDK2 inh -0.95.

Continuation:
Screening O=C(Cn1cnc2c(nnn2-c2cccc(Cl)c2)c1=O)N1CCCc2ccccc21 returned TAR Tat displ -1.1 and CDC25B CDK2 inh -1.2.
CC1=C(C(=O)OCc2ccccc2)C(c2ccccc2)C2=C(CC(C)(C)CC2=O)N1 (configuration not stated) was read as TAR Tat displ 0.14 and CDC25B CDK2 inh -1.1.
For O=C1c2ccccc2C(=O)C1c1nc2ccc3ccccc3c2s1 the results were CDC25B CDK2 inh 0.73.
For Cc1nn(C)c(C)c1CNC(=O)Cn1c(-c2cccs2)cc2cc(Cl)ccc21 the results were TAR Tat displ 0.84.
COC(=O)c1c(N)oc2c(-c3ccc(C)cc3)c3c(C(=O)OC)c(N)oc3cc12 was read as TAR Tat displ -4 and CDC25B CDK2 inh -1.2.
Screening O=C(COc1cccc(N2C(=O)C3CC=CCC3C2=O)c1)c1ccc(Br)cc1 (configuration not stated) returned TAR Tat displ 0.13 and CDC25B CDK2 inh -0.22.
Screening CC(C)CCNS(=O)(=O)c1ccc2c(c1)n(C)c(=O)c(=O)n2C returned TAR Tat displ 0.57 and CDC25B CDK2 inh -0.29.
`Cc1nn(C)c(C)c1CN(C)C(=O)c1cnn2c(C(F)F)cc(-c3ccccc3)nc12` gave TAR Tat displ -1.4 and CDC25B CDK2 inh -2.9.
CCOCCc1nn2c(=O)cc(COC(=O)c3ccc(Br)cc3)nc2s1 was read as TAR Tat displ 0.75.
Screening COc1ccc(OC)c(NC(=O)CSC2=Nc3ccccc3C3=NC(C)C(=O)N23)c1 (configuration not stated) returned TAR Tat displ 0.35.
`CCCCN(CC)Cc1c(C)[nH]c2ccc(Br)cc2c1=O` gave CDC25B CDK2 inh -1.9.
For Cc1ncc(CO)c2c1Oc1[nH]c(-c3cccc(Cl)c3)nc(=S)c1C2 the results were TAR Tat displ -5.4 and CDC25B CDK2 inh 1.8.
For CCCCC(=O)Oc1c(S(=O)(=O)c2ccc(C)cc2)c(C)nn1C(C)(C)C the results were TAR Tat displ 0.43 and CDC25B CDK2 inh -1.5.
Screening CN(CC(=O)NCCN1CCOCC1)S(=O)(=O)c1ccc2c(c1)c(=O)n(C)c(=O)n2C returned CDC25B CDK2 inh -0.54.
`C#CCn1c(-c2cccs2)nc2ccccc21` gave TAR Tat displ 0.61 and CDC25B CDK2 inh -2.

Five entries already listed, arranged by formula weight, descending.
`Cc1nn(C)c(C)c1CN(C)C(=O)c1cnn2c(C(F)F)cc(-c3ccccc3)nc12` gave TAR Tat displ -1.4 and CDC25B CDK2 inh -2.9.
`O=c1c2cn(Cc3ccccc3)c3ccccc3c-2nn1Cc1cccc(Cl)c1` gave TAR Tat displ -0.58.
Screening Nc1cc(N)nc(SCC(=O)Nc2nc3c(s2)CCCC3)n1 returned CDC25B CDK2 inh -1.5.
For CCCNC(=O)c1sc2ncnc(N3CCCC3)c2c1C the results were TAR Tat displ 0.26.
CCOc1ccc(NC(=O)N2CCC(O)C2)cc1 (configuration not stated) was read as TAR Tat displ -0.03 and CDC25B CDK2 inh -0.58.

New compounds follow.
CCn1ncc(C2=NOC(C(=O)Nc3cccnc3Cl)C2)c1C (configuration not stated) was read as CDC25B CDK2 inh -1.1.
Screening O=C(Nc1sc2c(c1C(=O)NCc1ccco1)CCCC2)c1cc(-c2cccs2)on1 returned TAR Tat displ 2 and CDC25B CDK2 inh -2.3.
For Cc1cc2ccccc2n1-c1ccc(C(=O)N2CCC(C(=O)NC(C)C)CC2)s1 the results were TAR Tat displ 0.32.
CCN1C(=O)c2ccccc2Sc2ccc(NC(=O)NCc3ccco3)cc21 was read as TAR Tat displ -0.86 and CDC25B CDK2 inh 0.56.
`CC1(C)Cc2c(c(N3CCOCC3)nc3sc(-c4cc(C(=O)O)co4)c(N)c23)CO1` gave TAR Tat displ -1.1 and CDC25B CDK2 inh -1.3.
For CN(C)Cc1c(O)ccc2c(=O)c(-c3ccccc3Cl)coc12 the results were TAR Tat displ 0.71 and CDC25B CDK2 inh -0.97.
For CC1CCCN(C(=O)C2CCN(c3ncnc4c3nc3n4CCCCC3)CC2)C1 (configuration not stated) the results were TAR Tat displ 0.9.
For COc1ccccc1C1C(C(=O)OC(C)C)=C(C)Nc2nnnn21 (configuration not stated) the results were TAR Tat displ 0.93 and CDC25B CDK2 inh -1.
For COc1ccc(OC)c(S(=O)(=O)c2cc3ccccc3oc2=O)c1 the results were CDC25B CDK2 inh -1.2.
`CC(C)c1ccc(S(=O)(=O)c2nnn3c2nc(NCc2ccco2)c2sccc23)cc1` gave TAR Tat displ 0.05.
Screening O=C(NNc1c(Cl)cncc1Cl)c1ccc(F)cc1F returned CDC25B CDK2 inh -1.6.
For CNC(=O)Cn1c2ccccc2c2nc(=O)cc(C)n21 the results were TAR Tat displ 0.04 and CDC25B CDK2 inh -1.6.
Screening Cc1noc(C)c1C(=O)O/N=C(\N)Cn1ccc(C(F)(F)F)n1 returned CDC25B CDK2 inh -1.4.
Screening CC1Cc2ccccc2N1C(=O)CS(=O)(=O)c1cccc2nsnc12 (configuration not stated) returned TAR Tat displ 2.9.
For COC(=O)N1c2ccccc2C=CC1C#N (configuration not stated) the results were TAR Tat displ 1.6 and CDC25B CDK2 inh -2.
For CNc1ncnc2c1C(c1ccc(Cl)cc1)c1c(NC)ncnc1O2 the results were CDC25B CDK2 inh 0.28.
Screening CCc1nn2c(=O)cc(COC(=O)c3ccccc3Cl)nc2s1 returned TAR Tat displ 0.36.
`Cc1ccc(-c2cc(Cc3ccc(-c4cccs4)s3)c(=O)[nH]n2)cc1` gave CDC25B CDK2 inh -2.3.
`Cc1ccc(S(=O)(=O)Nc2cccc(N3CCCS3(=O)=O)c2)c(C)c1` gave TAR Tat displ 0.71.
COCCn1c(SCC(=O)c2ccccc2)nnc1-c1c[nH]c2ccccc12 was read as CDC25B CDK2 inh -0.35.
Screening CCCC(C(=O)Nc1cccc(SC)c1)N1Cc2ccccc2C1=O (configuration not stated) returned TAR Tat displ -0.29.
For O=C(Oc1ccc(Oc2ccccc2)cc1)N1CCC(OC(=O)n2ccnc2)CC1 the results were CDC25B CDK2 inh -1.1.
`Cc1c(C)c(C)c(CSC(=N)CC#N)c(C)c1C` gave CDC25B CDK2 inh -1.5.
For Cc1ccc2oc(SCC(=O)Nc3nc4ccccc4s3)nc2n1 the results were TAR Tat displ 2.5.
CCOC(=O)c1cnc(SCC(=O)NC2CCCC2)nc1N was read as TAR Tat displ 2.3.
For CC1CC(=O)Nc2cc(S(=O)(=O)NC3CCCCC3)ccc2S1 (configuration not stated) the results were TAR Tat displ 1.1.
Screening Cc1cc(Nc2cccc3c2CCCC3)nc(-n2cc([N+](=O)[O-])cn2)n1 returned TAR Tat displ 1.3.
Screening CN(C(=O)c1cccc(S(=O)(=O)N(C)C)c1)C1CCS(=O)(=O)C1 (configuration not stated) returned TAR Tat displ 0.76.
For O=S(=O)(NCc1cccn1Cc1cccc(F)c1)c1cccc(Cl)c1 the results were TAR Tat displ -1.1.
`CCC(C)NC(=O)C1CCCN(S(=O)(=O)N(CC)CC)C1` (configuration not stated) gave TAR Tat displ -0.64.
Screening COc1ccc(C(C)=O)cc1CS(=O)(=O)Cc1cc(C(C)=O)ccc1OC returned CDC25B CDK2 inh -1.8.
Screening CC1CCc2nn(CC(=O)Nc3ccc(F)c(F)c3)c(=O)cc2C1 (configuration not stated) returned TAR Tat displ 2.8.
For CCOC(=O)COc1ccc2c(=O)c(-c3ccc(Cl)cc3)c(C(F)(F)F)oc2c1 the results were TAR Tat displ 1.4 and CDC25B CDK2 inh -0.51.
Screening CCOc1ccc(NC(=O)Nc2cc3sccc3n2C)cc1 returned TAR Tat displ -1.5 and CDC25B CDK2 inh 1.4.
For O=C(CSc1nc2c(c(=O)n1-c1ccc(Br)cc1)SCC2)Nc1nccs1 the results were TAR Tat displ 0.47 and CDC25B CDK2 inh 0.72.
For COC(=O)c1sc2ccccc2c1S(=O)(=O)N1CCN(c2ncccn2)CC1 the results were TAR Tat displ -1.9.
Screening COc1ccc(C(=O)Nc2ccccc2Sc2c(Cl)cncc2Cl)cc1 returned CDC25B CDK2 inh -1.1.
For CC(C)(C)c1ccc(C(=O)Nc2cnc3sc4ccccc4n3c2=O)cc1 the results were TAR Tat displ -1.3 and CDC25B CDK2 inh -1.4.
CC1(C)CC2CC(C)(CN2C(=O)c2cc(-c3ccc(Br)cc3)on2)C1 (configuration not stated) was read as CDC25B CDK2 inh 1.5.
Screening CCOC(=O)c1nc(NCc2cccs2)c2ccccc2n1 returned TAR Tat displ 1.1.
`NC(=O)c1nnn(-c2ccc([N+](=O)[O-])cc2)c1-c1ccccc1` gave CDC25B CDK2 inh -2.4.
Screening O=C(CSc1nc2ncccc2o1)N(c1ccccc1)c1ccccc1 returned TAR Tat displ -0.19.
`CCCCNC(=O)c1cc(C)no1` gave TAR Tat displ 0.53 and CDC25B CDK2 inh -0.78.
Screening Cc1cc(C)n2nc(CCc3ccccc3)nc2n1 returned TAR Tat displ 0.94 and CDC25B CDK2 inh 0.63.
`CS(=O)(=O)Cc1cc(F)cc2c1OCOC2` gave CDC25B CDK2 inh -1.3.

In the list so far, two contain a CF3 group:
Screening Cc1noc(C)c1C(=O)O/N=C(\N)Cn1ccc(C(F)(F)F)n1 returned CDC25B CDK2 inh -1.4.
For CCOC(=O)COc1ccc2c(=O)c(-c3ccc(Cl)cc3)c(C(F)(F)F)oc2c1 the results were TAR Tat displ 1.4 and CDC25B CDK2 inh -0.51.

Carrying on:
`CCOC(=S)NCCc1ccc(Cl)cc1` gave CDC25B CDK2 inh -1.3.
O=C(Nc1cc(C(F)(F)F)ccc1Cl)c1cccnc1 was read as CDC25B CDK2 inh 0.87.
For Cc1cc2n(n1)CCC(=O)N2C(C)C(=O)NCCC1=CCCCC1 (configuration not stated) the results were TAR Tat displ 0.15.
For CCOC(=O)c1cc(C)n(-c2ccccc2)c1C the results were CDC25B CDK2 inh -2.2.
For c1ccc2c(c1)c1ccccc1n2CCOCCN1CCCCC1 the results were TAR Tat displ 1.3 and CDC25B CDK2 inh -1.5.
O=C(C1CCCN1c1nnc(N2CCCC2=O)s1)N1CCN(c2ccccn2)CC1 (configuration not stated) was read as TAR Tat displ 1.3 and CDC25B CDK2 inh -2.2.
For O=C1COc2ccc(S(=O)(=O)CCC(=O)NC3CCCc4ccccc43)cc2N1 (configuration not stated) the results were TAR Tat displ 0.42.
Screening O=C(NC1CCCc2ccccc21)c1sc(=S)n2c1[nH]c(=O)c1ccccc12 (configuration not stated) returned CDC25B CDK2 inh -1.7.
`CN1C(=O)c2ccccc2C(C(=O)N2CCN(c3ccc(F)cc3)CC2)C1c1c[nH]c2ccccc12` (configuration not stated) gave CDC25B CDK2 inh -3.1.
For O=C(Cn1c(=O)oc2cc(S(=O)(=O)N3CCc4ccccc43)ccc21)NC1CCCCC1 the results were CDC25B CDK2 inh -0.93.

Screening results: PubChem BioAssay, Center for Chemical Genomics, University of Michigan
